Bioassay records from PubChem.
AID923 – qHTS Assay for Allosteric/Competitive Inhibitors of Caspase-1: Spectroscopic Profiling in AFC Spectral Region. Potency, µM (titrated, usually from 57.5 µM), inactives show top-dose fluorescence increase, usual class: activators. compound fluorescence, AFC spectral region (405/520 nm); almost no hit is shown here. AID 923, 2007. 1.1% of 75,000 active; active = well fitted activation curve with a large enough effect; inconclusive = small, poorly fitted or top-dose-only effect;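 note: potency is the fitted concentration of half-maximal effect; 0% is about no effect; scaled to a free AFC standard on each plate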
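Baseline compound fluorescence (AFC region, 405 nm ex/520 nm em) taken from the intercept of kinetic reads with 50 nM caspase-1 and 5 uM Ac-WEHD-AFC; normalized to an on-plate AFC standard curve; compounds titrated up to 57 uM.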
Resorufin fluor – qHTS Assay for Spectroscopic Profiling in Resorufin Spectral Region; Compound fluorescence, resorufin region 547/598 nm, buffer; stronger effect = higher value; max dye-equivalent concentration, M; 0.04% of 59,000 active; AID 588, 2007; active = above 10 nM dye equivalent; inconclusive = 1 to 10 nM; inactive = 1 nM or less; a few of its hits are not listed in these tables; note: highest value over a series up to 38 µM
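Compounds in 100 mM Tris, pH 8.0, incubated 15 min at room temperature, then fluorescence read at 547 nm excitation/598 nm emission. Signal converted to dye-equivalent concentration via an on-plate six-point resorufin standard curve, per compound concentration.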
A488 autofl – qHTS Assay for Spectroscopic Profiling in A488 Spectral Region | compound autofluorescence, A488 spectral region, dye equivalency; stronger effect = higher value | max dye equivalency, M | 0.1% of 59,000 active | AID 591, 2007; active = above 10 nM dye equivalent; inconclusive = 1 to 10 nM; inactive = 1 nM or less; about half of its hits are not listed in these tables;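 note: highest value over a series up to 38 µM; compound alone in buffer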
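Intrinsic compound fluorescence is measured in 100 mM Tris buffer at pH 8.0 following 15 min incubation at room temperature. Intensities at 480 nm excitation/540 nm emission are calibrated to an on-plate A488 concentration series, giving dye-equivalent concentrations.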
A647 fluor – qHTS Assay for Spectroscopic Profiling in A647 Spectral Region; Compound fluorescence, A647 channel (570/671 nm), Tris buffer; max dye-equivalent concentration, M; 59,000 tested, under 10 active; AID 592, 2007; active means above 1 µM dye equivalent; inconclusive means 0.1 to 1 µM; inactive means 0.1 µM or less;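 note: values scaled relative to a standard on each plate; highest value over a series up to 38 µM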
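Fluorescence read (570 nm ex, 671 nm em) after 15 min RT incubation of compounds in 100 mM Tris buffer, pH 8.0; values expressed as dye-equivalent concentration against a six-point A647 standard series on each plate.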
TSHR agonist – qHTS Assay for Agonists of the Thyroid Stimulating Hormone Receptor | Potency, µM (highest dose often 57.1 µM), inactives show at the highest dose activation, most hits filed as activators | AID 926, 2007 | HEK293-CNG-TSHR cells (CNG channel as cAMP sensor), membrane potential dye, cAMP | 0.48% of 73,000 active; active = well fitted activation curve of enough size with the parental cells flat; inconclusive = any curve in the parental cells; inactive = parental cells flat and receptor cells flat or falling; note: potency is the fitted concentration of half-maximal effect; % of control where 0% means no effect; weak receptor curves with flat parental cells got no call and are not listed
Target sequence (P16473 whole entry, looked up): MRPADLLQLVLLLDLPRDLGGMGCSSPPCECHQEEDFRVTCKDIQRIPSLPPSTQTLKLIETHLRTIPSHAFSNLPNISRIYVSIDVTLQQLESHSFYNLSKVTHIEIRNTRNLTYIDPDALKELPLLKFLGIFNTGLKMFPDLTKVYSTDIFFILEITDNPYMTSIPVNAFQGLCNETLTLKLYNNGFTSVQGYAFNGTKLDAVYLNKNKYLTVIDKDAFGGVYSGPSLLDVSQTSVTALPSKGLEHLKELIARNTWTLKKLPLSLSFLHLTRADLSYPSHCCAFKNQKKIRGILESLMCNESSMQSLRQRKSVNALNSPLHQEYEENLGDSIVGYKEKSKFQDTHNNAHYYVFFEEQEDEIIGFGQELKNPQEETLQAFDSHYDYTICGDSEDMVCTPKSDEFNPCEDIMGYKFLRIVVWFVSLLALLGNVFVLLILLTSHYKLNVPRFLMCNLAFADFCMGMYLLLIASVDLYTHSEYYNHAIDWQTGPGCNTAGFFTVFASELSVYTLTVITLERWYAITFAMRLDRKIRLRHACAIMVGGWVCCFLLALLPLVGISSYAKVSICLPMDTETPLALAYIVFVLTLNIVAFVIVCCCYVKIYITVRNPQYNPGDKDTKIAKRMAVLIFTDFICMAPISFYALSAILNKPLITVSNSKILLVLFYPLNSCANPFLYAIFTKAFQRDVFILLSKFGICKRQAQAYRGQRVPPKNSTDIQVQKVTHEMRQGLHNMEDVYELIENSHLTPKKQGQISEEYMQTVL
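HEK 293 cells stably expressing TSHR and a modified CNG channel, with CNG-only parental cells as counterscreen, were preloaded 60 min at room temperature with membrane potential dye containing 100 uM RO 20-1724. Compound exposure was 30 min, and depolarization was read as fluorescence at 590 nm.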
Starred values were filed as active, the others as inactive; i = inactive; ? = inconclusive; / = no result given; [ ] = dose if it differs, or a comment. An excerpt; the hit share may differ from the screen's.

Every second line gives: AID923	Resorufin fluor	A488 autofl	A647 fluor	TSHR agonist
CC(=O)c1cccc(NC(=O)C2CCCN(S(=O)(=O)c3ccccc3)C2)c1 (stereo not drawn)
 : -0.8%	i	i	2.54e-08	0.2%
Cc1cc(C)n(-c2ccc(C(=O)NC(C)C)cc2)n1
 : -1.0%	i	i	2.89e-08	-1.9%
CCOC(=O)c1cnc(SCc2nc(N)nc(Nc3ccccc3)n2)nc1N
 : -2.6%	i	i	4.3e-09	-8.3%
CCCC(=O)c1ccc(N2CCOCC2)c(F)c1
 : 1.4%	/	/	/	5.6%
CCn1c(SCC(=O)Nc2ccc(N3CCOCC3)c(Cl)c2)nnc1-c1ccc(N)cc1
 : 1.2%	i	i	1e-09	4.6%
NC(=O)C1CCN(C(=O)c2cc(S(=O)(=O)N3CCOCC3)c(Cl)cc2Cl)CC1
 : 0.0%	i	i	1.86e-08	0.3%
Nc1c(S(=O)(=O)c2ccccc2)nnn1-c1ccccc1
 : 0.5%	i	i	1.98e-08	0.1%
O=C(O)c1ccc(Cl)c(S(=O)(=O)Nc2ccccc2)c1
 : -2.8%	/	/	/	-5.3%
CN(C)C(=O)c1ccc(-c2cncnc2N(C)Cc2ccco2)cc1
 : 0.4%	i	i	2.39e-08	-1.6%
CN(C)c1ncc(C(=O)O)cn1
 : 1.7%	i	i	3.92e-08	-1.6%
CC1(C)C2CCC1(CS(=O)(=O)N1CCCc3ccccc31)C(=O)C2 (stereo not drawn)
 : -0.3%	i	i	1e-09	/
CCc1sc(NC(=O)CN2CCOCC2)nc1-c1ccccc1
 : -1.1%	i	i	1.77e-08	-15.0%
Cc1ccccc1-c1ccc2ncnc(N3CCN(C)CC3)c2c1
 : -1.9%	i	i	3.17e-08	?
Cc1ccc(OCCSc2nnc(-c3ccncc3)n2C)cc1
 : 0.6%	i	i	1e-09	3.2%
COC(=O)c1cn(C)c2ccc(S(=O)(=O)N3CCCC3)cc2c1=O
 : -1.4%	i	i	6.4e-09	9.2%
Cc1ccc(C2C(C(=O)c3cc4ccccc4o3)=C(O)C(=O)N2CCCN(C)C)cc1 (stereo not drawn)
 : /	i	i	1.2e-09	/
Cc1cc(=O)n2nc(N3CCCC(C(=O)N4CCN(C)CC4)C3)sc2n1 (stereo not drawn)
 : 0.3%	i	i	2.96e-08	-2.6%
COc1ccc(C(=O)N2CCC3(CC2)CN(c2cccc(-c4ccccc4)c2)C3)cc1
 : -0.4%	i	i	1.4e-09	11.0%
COc1ccc(Cl)c(S(=O)(=O)N2CCCC2)c1
 : -2.0%	i	i	2.13e-08	10.2%
COc1cccc(CN(Cc2cccnc2)S(=O)(=O)c2ccc(-n3cnnn3)c(C)c2)c1OC
 : 0.9%	i	i	5.03e-08	1.7%
COc1ccc(C(=O)Nc2cc3c(cc2C#N)OCO3)cc1S(=O)(=O)N1CCN(C)CC1
 : 1.9%	/	/	/	13.6%
CC1=CC(C)(C)C(C(=O)O)C(C(=O)O)C1 (stereo not drawn)
 : -1.0%	i	i	1.71e-08	1.7%
Cc1cc(C(=O)NCCCn2ccnc2)sc1-c1ccccc1
 : 0.2%	i	i	1e-09	15.0%
Cc1ccc(C(C)C)c(OCC(=O)N2CCOCC2)c1
 : 0.9%	i	i	4.2e-09	-4.3%
COc1ccccc1-c1nc(NCc2cnc(C)cn2)c2ccccc2n1
 : -2.5%	i	i	3.35e-08	0.6%
O=C(CSc1nc2ccccc2n1CC(=O)N1CCCC1)Nc1ccc2c(c1)OCO2
 : 0.0%	i	i	6.3e-09	-2.9%[11.4 µM]
Cc1c(C(=O)O)sc(=S)n1CCOc1ccccc1
 : -2.1%	/	/	/	-4.1%[11.4 µM]
O=C(CSc1nnc(Cn2c(=O)sc3ccccc32)n1-c1ccccc1)N1CCCCCC1
 : -1.7%	/	/	/	14.0%
CC1(C)CC(=O)C2=C(C1)NC(=O)CC2c1cccc(F)c1 (stereo not drawn)
 : 1.9%	i	i	5.07e-08	11.3%
O=C(c1cccnc1)N1C2C=CC(C2)C1(C(F)(F)F)C(F)(F)F (stereo not drawn)
 : -0.6%	i	i	4.7e-09	-5.7%
Cc1cc(=O)[nH]c(-n2nc(C)cc2C)n1
 : 0.1%	i	i	4.47e-08	-0.6%
Cc1ccc(-n2c(C)cc(C)c(C#N)c2=O)cc1Cl
 : 0.7%	i	i	1.59e-08	7.8%
C=CCc1ccccc1OCC(O)CN1CCN(c2ccccc2F)CC1 (stereo not drawn)
 : -1.8%	i	i	1.62e-08	8.9%[11.4 µM]
O=C(c1cccs1)N1CCC(c2nc3ccccc3s2)CC1
 : -0.5%	i	i	9.2e-09	?
CCn1c(=O)cc(SCC(=O)NCC2CCCO2)c2ccccc21 (stereo not drawn)
 : 1.6%	i	i	3.7e-09	13.3%
CCCn1c(C)nc2c(NCCN(C)C)nc(C)nc21
 : -1.6%	/	/	/	3.5%
CCOC(=O)c1nnn(-c2nonc2-n2cccc2)c1CN1CCCCC1
 : 2.7%	i	i	1e-09	?
CC1(C)CC(=O)C(=CN2CCN(C(=O)c3ccco3)CC2)C(=O)C1
 : 2.7%	/	/	/	3.8%
O=C(O)CCC(=O)N1CCOc2ccc(Cl)cc21
 : 3.0%	/	/	/	-3.0%
Cc1cc(C)n(CC(O)CN2C(=O)NC(C)(C)C2=O)n1 (stereo not drawn)
 : -0.7%	i	i	9.9e-09	5.2%
Cc1ccc(NC(=O)c2cc(-c3ccc(C)o3)nc3ccccc23)nc1
 : 13.2%	/	/	/	?
O=C(CCCc1nc(-c2ccccc2)no1)NCc1cccnc1
 : -0.7%	i	i	1.29e-08	6.8%
Cc1cc(Cl)cc(C)c1OCC(=O)O
 : -1.3%	i	i	3.97e-08	9.4%
Cn1c(=O)c2cc(S(=O)(=O)NCCC(=O)N3CC=C(c4ccccc4)CC3)ccc2n(C)c1=O
 : 0.1%	i	i	8.8e-09	1.1%
O=C1CCc2cc(S(=O)(=O)NCCC(=O)NC3CCN(Cc4ccccc4)CC3)ccc2N1
 : -0.2%	i	i	5.6e-09	1.0%
CCCCCn1c(N2CCN(Cc3ccccc3)CC2)nc2c1c(=O)[nH]c(=O)n2C
 : 2.0%	i	i	1e-09	-9.1%
Clc1ccc(CN2C3=NCCN3c3ccccc32)cc1Cl
 : -0.5%	i	i	1e-09	?
CC(=O)N1SC(N)=NC1c1ccccc1 (stereo not drawn)
 : -0.7%	i	i	1e-09	-1.5%
O=C(CSc1nnc(-c2ccccn2)n1Cc1ccco1)c1ccccc1
 : -1.1%	i	i	1e-09	16.4%
COc1ccc(CCNc2nc(N3CCCCC3)nc(N3CCCCC3)n2)cc1OC
 : 2.2%	i	i	3.02e-08	?

Additional entries:
Every second line gives: AID923	Resorufin fluor	A488 autofl	A647 fluor	TSHR agonist
COc1cc(OC)cc(OCC(O)Cn2cnc(-c3ccccc3)c2)c1 (stereo not drawn)
 : -0.3%	i	i	1e-09	3.6%
CCOC(=O)CCC(NC(=O)c1ccc(NCN2C(=O)CCC2=O)cc1)C(=O)OCC (stereo not drawn)
 : 1.4%	i	i	4.1e-09	1.8%
CC(C#N)Sc1ncnc2sc3c(c12)CCC3 (stereo not drawn)
 : -0.3%	i	i	3.28e-08	?
O=C(O)CSc1nc(-c2ccccc2)nc2c1oc1ccccc12
 : -0.6%	i	i	1.4e-09	6.0%
Cc1ccc2cc(C(c3nnnn3C3CCCC3)N(Cc3ccccc3)Cc3ccco3)c(=O)[nH]c2c1 (stereo not drawn)
 : 1.4%	i	i	2.1e-09	25.0%
COc1cc(OC)c(C(=O)Oc2ccc3c(c2)OCO3)cc1OC
 : 0.0%	i	i	1.62e-08	5.0%
COc1ccc(CCn2c(=S)[nH]c3cc(C(=O)NCc4ccco4)ccc3c2=O)cc1OC
 : -0.8%	i	i	1e-09	9.9%
O=C(c1ccncc1)N1CCC[C@@]2(CCN(Cc3ccccc3)C2)C1
 : -2.6%	i	i	1.4e-09	28.6%
O=C(COC(=O)c1cnccn1)Nc1ccc2c(c1)OCO2
 : -0.2%	i	i	3.6e-09	5.4%
O=C(Nc1cccnc1)C1CCCN1S(=O)(=O)c1ccc(Cl)c(Cl)c1 (stereo not drawn)
 : -2.8%	i	i	2.6e-08	20.7%
CCn1nnc(NC(=O)COc2cc(C)ccc2C(C)C)n1
 : 2.3%	i	i	1.72e-08	7.4%
N#CCCn1c(=O)cnc2cnc(Oc3ccccc3)nc21
 : 3.3%	i	i	1e-09	/
COc1ccc(-n2c(=O)c(C)nc3cncnc32)cc1
 : -0.4%	i	i	3.94e-08	?
CC(C)c1ccc2oc(-c3cc(N)ccc3O)nc2c1
 : 4.7%	/	/	/	-25.0%[11.4 µM]
C=CCn1c(CCC(=O)O)ccc1-c1ccccc1
 : -0.7%	i	i	2.2e-09	8.3%
CCn1c(=O)cc(OCC(=O)N2CCN(C(=O)c3ccco3)CC2)c2ccccc21
 : -0.1%	i	i	3e-09	7.7%[11.4 µM]
CO[C@H]1COC(=O)[C@H](C)COC(=O)[C@@H](OCc2ccccc2)/C=C\[C@@H]1C
 : 2.1%[11.5 µM]	/	/	/	6.4%[11.4 µM]
CC(=O)c1ccccc1[N+](=O)[O-]
 : 4.0%	/	/	/	-3.8%
O=C(CSc1nnc2ccccn12)Nc1ccccc1C(=O)NC1CC1
 : -0.7%	i	i	1e-09	-2.3%
CN(C)S(=O)(=O)c1ccc2nc(NC(=O)c3cccnc3)sc2c1
 : 1.3%	i	i	4.22e-08	?
CCOC(=O)C1CCN(C(=O)c2ccc(Br)o2)CC1
 : -1.6%	i	i	3.49e-08	2.4%
CCc1ccc(CC)c(S(=O)(=O)Nc2ccc(C(=O)O)c(O)c2)c1
 : -0.8%	i	i	3.69e-08	?
Cc1nc2ccccc2nc1OCC(=O)NCc1ccc2c(c1)OCO2
 : -0.4%	i	i	1e-09	18.9%
COc1cccc(-n2nnc3c(=O)n(C/C=C/c4ccccc4)cnc32)c1
 : 3.6%	/	/	/	12.7%
O=C(CSc1nnc(COc2ccc(Cl)cc2)n1Cc1ccco1)c1ccccc1F
 : 0.1%	i	i	2.65e-08	?
CCCCSc1nc2c(c(=O)[nH]c(=O)n2C)n1CCc1ccccc1
 : 1.4%	/	/	/	?
O=Cc1cccc(Br)c1
 : 1.4%	/	/	/	4.6%
CCCc1cc(C(=O)NC2CCCC2)no1
 : 3.8%	/	/	/	4.1%
CCOC(=O)CCc1c(C)nc2c(c(C)nn2C(C)(C)C)c1C
 : 2.5%	/	/	/	25.1µM*
Cc1c(NC(=O)C2(C)CCCCC2)c(=O)n(-c2ccccc2)n1C
 : 0.8%	/	/	/	0.0%
Nc1ccc(S(=O)(=O)N2CCCc3ccccc32)cc1
 : -3.4%	/	/	/	-4.6%

One compound at a time (already shown). Order of screens: AID923, Resorufin fluor, A488 autofl, A647 fluor, TSHR agonist
Results for `CCc1ccc(CC)c(S(=O)(=O)Nc2ccc(C(=O)O)c(O)c2)c1` → -0.8%, i, i, 3.69e-08, ?
Results for `Nc1ccc(S(=O)(=O)N2CCCc3ccccc32)cc1` → -3.4%, /, /, /, -4.6%
